Assay outcomes (PubChem)
StopGo RLuc – FMDV 2A StopGo reporter, Renilla signal; HEK cells with a luciferase reporter of 2A StopGo recoding; Potency, µM (series often up to 57.5 µM), for inactives: at the highest dose signal change, negative = less light; 0.32% of 120,000 active; active means well fitted falling curve with a large enough effect; inconclusive means small, poorly fitted or top-dose-only effect; inactive means no such curve, though single readings can be large or run the other way; note: nearly all actives have a fitted effect of over 55% in size; overnight with compound
StopGo FLuc – FMDV 2A StopGo reporter, firefly signal. HEK cells with a luciferase reporter of 2A StopGo recoding. 0.23% of 120,000 active. AID 1745856. Potency, µM (top dose mostly 57.5 µM), for the others: at the highest dose signal change, negative = less light; active = well fitted falling curve with a large enough effect; inconclusive = small, poorly fitted or top-dose-only effect; inactive = no such curve, though single readings can be large or run the other way; note: nearly all actives have a fitted effect of over 60% in size; overnight with compound
* hit, by the source's call; ? = inconclusive; & = joins results of further samples; [ ] = dose if it differs, or a comment. % is set by controls: 0 for no effect and ±100 for the full control effect; potency is the fitted concentration of half-maximal effect. These rows are one share of the data (hit frequency here may not be typical).

Every second line gives: StopGo RLuc, StopGo FLuc
CCOc1ccc2oc(=O)cc(CN3CCN(c4ccccc4)CC3)c2c1
 : 0%&-14%, ?
CCCNc1nc(Nc2ccc(C)cc2)c2cnn(C)c2n1
 : 0%, 18%
CCc1c(C)sc(NC(=O)c2cccc(Br)c2)c1C#N
 : 5%, 155%[activator]
CC(Oc1ccccc1C(N)=O)c1ccccc1Cl (centres undefined)
 : -29%, -13%
Cc1ccc2c(=O)cc(C(=O)N3CCN(c4cccc(Cl)c4)CC3)oc2c1C
 : 20%, 19%
CCCCn1c(N2CCN(CC(N)=O)CC2)nc2c1c(=O)[nH]c(=O)n2C
 : -7%, -4%
O=c1[nH]c(C2CCCN(S(=O)(=O)c3ccccc3)C2)nc2c1nnn2Cc1ccc(OC(F)(F)F)cc1 (centres undefined)
 : 1%, -1%
Cc1cccc(C(=O)OCCCN(C)C)c1
 : 0%, -10%
Cn1cnc2c1c(=O)n(CCCSc1nnc(-c3ccccc3)o1)c(=O)n2C
 : -1%, -2%
CC(=O)c1cnn(-c2cc(Oc3ccc(C#N)cc3)nc(C)n2)c1C
 : 2%, -5%
Cc1nc(SC(C)C)c2c(=O)n(C)c(=O)n(CC(C)C)c2n1
 : 3%, 3%
Cc1ccc(N2CC(c3nnc(NC(=O)c4ccco4)s3)CC2=O)cc1Cl (centres undefined)
 : -9%, 4%
CCCn1c(C)cc(C(=O)CSc2nnc(-c3ccncc3)n2-c2ccccc2)c1C
 : -6%, -11%
CCOC(=O)c1ccc(N2C(=O)c3n[nH]c(C)c3C2c2cccc(Br)c2)cc1 (centres undefined)
 : -10%, ?
NC(=S)c1ccc(S(N)(=O)=O)cc1
 : 15%, 8%
Cc1ccccc1OCC(=O)Nc1nnc(SCc2cc(=O)n3cc(Cl)ccc3n2)s1
 : -7%, -21%
COc1ccc(-n2ccnc(NCCc3ccc(S(N)(=O)=O)cc3)c2=O)cc1Cl
 : 22%, -1%
CCOc1nc2cccc(C(=O)O)c2n1Cc1ccc(-c2ccccc2-c2nn[nH]n2)cc1
 : -8%, -10%[11.5 µM]
CCOc1ccc(/C=C/c2nc(C#N)c(Nc3ccc(OC)cc3)o2)cc1
 : 5%&-6%, 0%&6%
COc1ccc(NC(=O)Cn2c(=O)n(Cc3ccco3)c(=O)c3sc4ccccc4c32)cc1Cl
 : -5%, -6%
Cc1cccc2c1N(Cc1ccc(OC(C)C)cc1)C(=O)C2=O
 : 11%, 4%
CC(C)NC(=S)NN=C1CCCCC1
 : 27%, 0%
N#C/C(=C/c1cccc(O)c1)c1ccc(C(F)(F)F)cn1
 : -2%, 205%[activator]
N#CC(Cc1cccnc1)C(=O)Nc1cc(Cl)ccc1Cl (centres undefined)
 : 72%[activator], 5%
CCOC(=O)C(NC(=O)c1cc(C)cc(C)c1)C(=O)OCC
 : -1%, -11%
COCCNC(=O)CSc1nnc(NC(=O)Nc2ccc(C)cc2)s1
 : -2%, 26%
COc1ccc(Nc2nc(CSc3nnc(-c4ccccc4OC)o3)cs2)cc1
 : 0%, 0%
CC(C)(C)c1ccc(C(=O)NNc2ncnc3c2cnn3-c2ccc(Cl)cc2)cc1
 : -11%, 4%
Cc1nc2ccc(Cl)cc2cc1C(=O)NCc1cccnc1-n1cncn1
 : -6%, -3%
CC1CCN(S(=O)(=O)c2ccc3[nH]ccc3c2)CC1
 : 281%[activator], -2%
CCCCn1nc(C(=O)NCC(c2ccco2)N2CCCCC2)c2ccccc2c1=O (centres undefined)
 : 12%, 0%
CCn1c(=O)n(CCC(=O)N(C)CC(=O)Nc2ccccc2Br)c2ccccc21
 : 11%, 23%
O=C(CSc1ncc(-c2ccc(F)cc2)o1)Nc1cccc(F)c1
 : -8%, 66%[activator]
CN1CCc2nc3sc(C(=O)Nc4cccc(C#N)c4)c(N)c3cc2C1
 : 6%, 111%[activator]
N#Cc1ccccc1S(=O)(=O)NC1CCSc2c(F)cccc21 (centres undefined)
 : 17%, -5%
COC(=O)[C@@H](N)CCCN/C(N)=N/[N+](=O)[O-]
 : -6%, -16%[11.5 µM]
Cc1ccc(N2C(=O)CC(c3ccccc3F)C3=C2COC3=O)cc1Cl (centres undefined)
 : 2%, -14%
CCOc1ccc(-c2nonc2NC(=O)c2oc3ccccc3c2C)cc1OCC
 : 7%, 8%
CC(C)CC(NC(=O)C(c1ccccc1)c1ccccc1)c1ccccc1 (centres undefined)
 : 14%, 4%
CONC(=O)COc1ccc(C)cc1C
 : -11%, 0%
CC(=O)Nc1ccc(S(=O)(=O)NC2(C(F)(F)F)NC(=O)N(CCc3ccc(F)cc3)C2=O)cc1 (centres undefined)
 : 30%[activator], -11%
Cc1ccccc1OCC(=O)NCc1ccc(Cn2cccn2)cc1
 : 39%, 48%[activator]
CC(NC(=O)c1cncc(Br)c1)C1CC2CCC1C2 (centres undefined)
 : 14%, 6%
O=C(NCc1ccc2c(c1)OCO2)c1nn(-c2ccc(Cl)cc2)nc1CO
 : 4%, 17%
CCOC(=O)c1[nH]c(C)c(C(=O)NCc2ccccc2Cl)c1C
 : 11%, 10%
CCOc1ccc(NC(=O)c2nn(C)c3c2CS(=O)(=O)c2ccccc2-3)cc1
 : 4%, -5%
COc1ccc(-c2c(C)c3ccc(O)c(CN4CCCC(C)C4)c3oc2=O)cc1OC (centres undefined)
 : -8%, -5%
COc1ccc(COc2ccc3c(C)c(CC(=O)O)c(=O)oc3c2)cc1
 : 6%, 0%
COc1ccc(Cn2ccc3nc(C)c(C(=O)NCc4ccc(F)cc4)cc3c2=O)cc1
 : 1%, -7%
COC(=O)c1ccccc1NC(=O)c1noc2c1CSc1ccccc1-2
 : 1%, 41%[activator]
COc1ccc(OCCN(C)C(=O)c2cc(Br)c[nH]2)cc1
 : 90%[activator], 10%
CCC(=O)Nc1ccc(SC2CCCC2)cc1
 : 0%, 26%
Cc1ccc(C)c(N2CCN(C(=O)CCn3c(=O)c4cccn4c4cccnc43)CC2)c1
 : -5%, -7%
CCOC(=O)C(C)Oc1ccc2c(=O)c(Oc3ccccc3OCC)coc2c1 (centres undefined)
 : 21%, 27%
CCOc1ccc(S(=O)(=O)N(CC)CC)cc1NC(=O)c1cccc(CN2CCCC2=O)c1
 : 60%[activator], -1%
CCOc1ccc(-c2cc3c(=O)n(CC(=O)NCc4ccc(OC)cc4)ccn3n2)cc1
 : 0%, 179%[activator]
CCOC(=O)C1=C(CN(CCOC)Cc2ccco2)NC(=O)NC1c1ccc(OC(C)C)cc1 (centres undefined)
 : 13%, -10%
CCOc1ccc(-n2c(=O)c3c(C)c(C)sc3n(CC(=O)C(C)(C)C)c2=O)cc1
 : -1%, -2%
CCCNc1nc2ccccc2nc1C(=O)Nc1ccc(Cl)cc1
 : 27%, 29%
CC(C)c1ccc(NC(=O)CN(c2cc(C(F)(F)F)ccc2Cl)S(C)(=O)=O)cc1
 : 121%[activator], -14%

(further entries)
Every second line gives: StopGo RLuc, StopGo FLuc
CCOC(=O)c1cccc(NC(=O)c2cc(CN3CCOCC3)on2)c1
 : -14%, -20%
O=[N+]([O-])c1cc(S(=O)(=O)Nc2ccccc2)ccc1N/N=C/c1ccc(C(F)(F)F)cc1
 : 25%, 2%
CCOC(=O)c1c(N)n(-c2cccc(OC)c2)c2nc3ccccc3nc12
 : -8%, 25%
CCOC(=O)C(CC)Sc1nnc(CSc2nc(C)cc(C)n2)n1-c1ccc(F)cc1 (centres undefined)
 : 9%, -7%
CNC(=O)C(C)n1nc(-c2cc(C)ccc2C)c2ccccc2c1=O (centres undefined)
 : 33%[activator], 0%
CCCn1c(=O)c2sc(N3CCC(C)CC3)nc2n(CC(=O)Nc2cc(Cl)ccc2C)c1=O
 : 5%, 10%
COC(=O)c1ccc(C2C(C#N)=C(N)Oc3n[nH]c(-c4ccc(OC)cc4)c32)cc1 (centres undefined)
 : 8%, 18%
CC(C)c1cc(-c2nn3c(-c4ccccn4)nnc3s2)n(C)n1
 : 6%, 52%[activator]
CCS(=O)(=O)c1ncc(N(Cc2ccccc2)Cc2ccco2)c(C(=O)Nc2ccccc2)n1
 : 24%, 6%
COCCCN1C(=O)c2[nH]nc(-c3cc(C)ccc3O)c2C1c1ccc(F)cc1 (centres undefined)
 : 1%, -18%
Cc1oc(-c2ccccc2)nc1C(=O)NCC(c1ccccc1)N1CCCC1 (centres undefined)
 : -17%, -9%
CCOc1ccc(Nc2sc(C(=O)c3ccc(F)cc3)c(N)c2S(=O)(=O)c2ccc(C)cc2)cc1
 : -20%, -14%
COCCN1C(=O)c2n[nH]c(-c3ccco3)c2C1c1ccccc1 (centres undefined)
 : 22%, 28%
CCCCOC(=O)c1ccc(NC(=O)CSc2nc3c(c(=O)[nH]2)CCC3)cc1
 : -7%, -8%
CC(C)c1nn2c(=O)cc(COC(=O)c3cccc(NC(=O)c4ccccc4F)c3)nc2s1
 : -6%, 0%

Some of the entries above in another layout.
SMILES | StopGo RLuc | StopGo FLuc
O=[N+]([O-])c1cc(S(=O)(=O)Nc2ccccc2)ccc1N/N=C/c1ccc(C(F)(F)F)cc1 | 25% | 2%
CCOC(=O)c1c(N)n(-c2cccc(OC)c2)c2nc3ccccc3nc12 | -8% | 25%
CCOC(=O)C(CC)Sc1nnc(CSc2nc(C)cc(C)n2)n1-c1ccc(F)cc1 (centres undefined) | 9% | -7%
CNC(=O)C(C)n1nc(-c2cc(C)ccc2C)c2ccccc2c1=O (centres undefined) | 33%[activator] | 0%
CCCn1c(=O)c2sc(N3CCC(C)CC3)nc2n(CC(=O)Nc2cc(Cl)ccc2C)c1=O | 5% | 10%
COC(=O)c1ccc(C2C(C#N)=C(N)Oc3n[nH]c(-c4ccc(OC)cc4)c32)cc1 (centres undefined) | 8% | 18%
CC(C)c1cc(-c2nn3c(-c4ccccn4)nnc3s2)n(C)n1 | 6% | 52%[activator]
CCS(=O)(=O)c1ncc(N(Cc2ccccc2)Cc2ccco2)c(C(=O)Nc2ccccc2)n1 | 24% | 6%
COCCCN1C(=O)c2[nH]nc(-c3cc(C)ccc3O)c2C1c1ccc(F)cc1 (centres undefined) | 1% | -18%
Cc1oc(-c2ccccc2)nc1C(=O)NCC(c1ccccc1)N1CCCC1 (centres undefined) | -17% | -9%
CCOc1ccc(Nc2sc(C(=O)c3ccc(F)cc3)c(N)c2S(=O)(=O)c2ccc(C)cc2)cc1 | -20% | -14%
COCCN1C(=O)c2n[nH]c(-c3ccco3)c2C1c1ccccc1 (centres undefined) | 22% | 28%
CCCCOC(=O)c1ccc(NC(=O)CSc2nc3c(c(=O)[nH]2)CCC3)cc1 | -7% | -8%

Next results:
Every second line gives: StopGo RLuc, StopGo FLuc
COc1ccc(OC)c(CCNC(=O)c2c(C)oc3ncn(CC(C)C)c(=O)c23)c1
 : 36%[activator], -1%
CCN(c1ccccc1)S(=O)(=O)c1ccc(NC(=O)c2nc(S(C)(=O)=O)ncc2Cl)cc1
 : ?, ?
CCOC(=O)c1oc2cc(O)ccc2c(=O)c1-c1ccc2c(c1)OCCO2
 : 0%, 5%
CCN(CC)CCNC(=O)c1c(C)oc2ncn(C)c(=O)c12
 : 4%, 11%
COc1ccc(Oc2coc3cc(OCC#N)ccc3c2=O)cc1
 : -6%, 22%
Cc1ccccc1OCc1nc2c3c(ncn2n1)Oc1cc(O)ccc1C3c1ccccc1 (centres undefined)
 : ?, ?
CC(=O)Nc1ccc(CNCCSCc2cccs2)cc1
 : 17%, 15%
COc1ccc(CNC(=O)c2cc3c(=O)n(C)c4ccccc4c3n2C)cc1
 : -13%, -23%
COc1ccc2cc(CNc3ccc(C)cc3)c(=O)n(CC(=O)Nc3ccc(OC)c(Cl)c3)c2c1
 : -5%, 6%
Cc1cn([C@H]2C=C[C@@H](CO)O2)c(=O)[nH]c1=O
 : -10%, -18%
Cc1ccc(Cn2cnc3nc4c(cc3c2=O)CCCC4)cc1
 : 13%, 0%
COc1cn(CC(=O)Nc2ccc(C)cc2)c(CN2CCCCC2)cc1=O
 : -4%, -12%
O=C(NCc1ccccn1)c1cc(-c2ccncc2)nc2ccccc12
 : 30%[activator], 32%[activator]
CCC(=O)N1CCc2cc(Br)cc(S(=O)(=O)CCC(=O)N3CCN(c4ccc(F)cc4)CC3)c21
 : -11%, 7%
C=C(C)COc1ccc(C(=O)Nc2ccccc2)cc1
 : 6%, 165%[activator]
COc1ccc(C(=O)N/C(=C\c2cc3ccc(OC)cc3nc2Cl)C(=O)N(C)C)cc1
 : -3%, -2%
COc1ccc(S(=O)(=O)N2CCC(c3nnnn3-c3ccccc3)CC2)cc1OC
 : -14%, -5%
Cc1ccc(-c2nc(CS(=O)(=O)CC(=O)N3CCN(c4cccc(C)c4C)CC3)c(C)o2)cc1
 : -3%, 0%
COc1ccc(Cl)cc1NC(=O)CCn1c(=O)oc2ccccc21
 : 12%, 3%
Cc1ccc2c(CN3CCN(c4cccc(Cl)c4)CC3)cc(=O)oc2c1
 : -16%, -6%
Cc1ccc(S(C)(=O)=O)cc1C(=O)NCc1coc(-c2cccs2)n1
 : 0%, 2%
O=C(COc1c(CO)cc(F)cc1CO)Nc1ccc(Cl)cc1F
 : -5%, 55%[activator]
COc1cccc(N2CCN(C(=O)c3ccc(C)c(NC(=O)c4nsc5ccccc45)c3)CC2)c1
 : -1%, -2%
CC(C)CC(=O)Nc1ccc(-c2cc3cc(F)ccc3[nH]2)cc1
 : 1%, 3%
Cc1cccc(C)c1OCCNC(=O)COc1ccc2c(C)cc(=O)oc2c1
 : 46%[activator], 0%
CCOC(=O)NNC(=O)c1ccc(CC)cc1
 : 16%, 185%[activator]
Cc1oc(-c2ccc(C(=O)NCc3cccc(F)c3)cc2)nc1COc1ccccc1
 : -4%, -22%
c1ccc(COc2ccc(Oc3cc(-c4nc5ccccc5s4)c4ccccc4n3)cc2)cc1
 : -1%, ?
